ugtP null kill: compounds lethal to S. aureus RN4220 ugtP deletion mutant; OD600 growth, 16 h; some inactives read as strong as hits; growth inhibition, % (no concentration beside the values); 330,000 compounds, 0.54% hits;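 active = z-score under -3 and OD600 up to 0.15 on both plates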;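 also: plate controls were untreated wells for no effect and antibiotic for full effect; wells of about 80 µL received 100 nL stock; the first replicate is given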
BJeLR lethal: kills HRASV12-expressing BJeLR cells. BJeLR (HRASV12) viability, CellTiter-Glo ATP luminescence, 48 h; reference of the scale not given here. inhibition, % (test concentration not listed). 300,000 compounds, 0.17% hits;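 active = replicate mean above 50%; inconclusive = above 50% but judged a plate artefact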;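 also: 50 nL library stock added to about 25 µL; numbers are from one replicate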
RN4220 kill: kills Staphylococcus aureus RN4220; inhibition, % (test concentration not listed); 330,000 compounds, 0.33% hits; AID 1259311; S. aureus RN4220 growth, OD600, 16 h;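 active = z-score of -3 or lower and OD600 up to 0.18 on both plates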;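 also: plate controls were untreated cells for no effect and reference antibiotic for full effect; stock transfer was 100 nL into about 80 µL; one replicate is shown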
Bead autofluor: counter-screen for toxin protease inhibitors: compound fluorescence; 360,000 compounds, 3.1% hits; fluorescence intensity (no concentration beside the values); compound autofluorescence counterscreen, microsphere flow cytometry; hits give high values;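 active = at least 3 SD above the mean of all compounds, about 16000 in these data; inconclusive = too few beads counted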;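 also: 100 nL of 1 mM stock went into each well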
PrP UTR inh: suppresses PrP 5' UTR mRNA reporter expression; cell-based PrP 5' UTR mRNA reporter, plate reader; inhibition, % (test concentration not listed); 340,000 compounds, 0.35% hits;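 active = every replicate at 50% or more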;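 also: 0 = median of the neutral control wells; tested in H4 reporter cells; numbers are from one replicate; inactives centre near -14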
Mtb hypoxia rep: inhibitors of hypoxia-regulated fluorescent reporter in Mycobacterium tuberculosis; M. tuberculosis hypoxia-regulated fluorescent reporter, fluorescence; fluorescence inhibition, % (concentration not given with the values); 300,000 compounds, 0.1% hits;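 active = 35 to 45% if threefold the growth effect, above 45% if 1.5-fold the growth effect; inactive = the rest, general growth blockers included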;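 also: wells of about 50 µL received 100 nL stock; 0% = vehicle wells and 100% = reference inhibitor wells; whole bacteria with a GFP reporter of the hypoxia response; strong numbers were not always called active; many hits fall short of the cut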
Mtb hypoxia rep growth: further read-out of Mtb hypoxia rep, marked with its call; growth inhibition, %; measured here: M. tuberculosis growth (absorbance);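 0% = vehicle and 100% = reference antibiotic; read after six days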
* hit, by the source's call. Compounds were not picked by outcome, and some 4% of all compounds hit somewhere here.

For CCOC(=O)C1=C(c2ccccc2)NC(SCC(=O)NC2CCCCC2)=C(C#N)C1c1ccco1 (stereo not given) the results were ugtP null kill -2, BJeLR lethal -9, RN4220 kill 2.6, Bead autofluor 9340, PrP UTR inh 24, Mtb hypoxia rep 2 and Mtb hypoxia rep growth 3.
COc1ccc(CNC(=O)CN(C)S(=O)(=O)c2ccccc2)cc1 was read as ugtP null kill 8, RN4220 kill 2.8, Bead autofluor 4634, PrP UTR inh -15, Mtb hypoxia rep 11 and Mtb hypoxia rep growth 10.
CNC(=S)Nc1ccc([N+](=O)[O-])cc1C was read as ugtP null kill -1, BJeLR lethal -6, RN4220 kill 2.6, Bead autofluor 3384, PrP UTR inh -15, Mtb hypoxia rep -1 and Mtb hypoxia rep growth -5.
For Cc1nn(C2CCS(=O)(=O)C2)c2nc(C3CC3)cc(C(=O)Nc3ccc(C(N)=O)cc3)c12 (stereo not given) the results were ugtP null kill 9, RN4220 kill 4.6, Bead autofluor inconclusive, PrP UTR inh -2, Mtb hypoxia rep 12 and Mtb hypoxia rep growth 4.
For CN1CCN(NC(=O)COc2cccc(C(F)(F)F)c2)CC1 the results were ugtP null kill 9, BJeLR lethal -1, RN4220 kill 0.9, Bead autofluor 7498, PrP UTR inh -24, Mtb hypoxia rep 1 and Mtb hypoxia rep growth 7.
CCCCc1nc2ccccc2c(=O)n1-c1ccccc1O was read as ugtP null kill -8, BJeLR lethal -3, RN4220 kill 19, Bead autofluor 2493, PrP UTR inh 3, Mtb hypoxia rep 10 and Mtb hypoxia rep growth 10.
O=C(O)COc1cccc(NC(=O)C2CCCO2)c1 (stereo not given) was read as ugtP null kill -1, BJeLR lethal -3, RN4220 kill -2.5, Bead autofluor 3189, PrP UTR inh -6, Mtb hypoxia rep 6 and Mtb hypoxia rep growth 9.
For CNC(=O)c1c(C)[nH]c(=S)c(C#N)c1-c1ccco1 the results were ugtP null kill 4, BJeLR lethal -8, RN4220 kill 1.4, Bead autofluor 3489, PrP UTR inh -9, Mtb hypoxia rep 2 and Mtb hypoxia rep growth 13.
For Cc1ccccc1C(=O)N1CCC(C(=O)NC2CCCC2)CC1 the results were ugtP null kill 3, BJeLR lethal -9, RN4220 kill 1.6, Bead autofluor 3553, PrP UTR inh -22, Mtb hypoxia rep 2 and Mtb hypoxia rep growth 6.
Screening O=C(c1ccccc1)c1c[nH]c(C(=O)NCc2cccnc2)c1 returned ugtP null kill -1, BJeLR lethal -7, RN4220 kill 2.9, Bead autofluor 4426 and PrP UTR inh -15.
Screening COc1ccc(C)cc1S(=O)(=O)N1CCN(c2cccc(C(F)(F)F)c2)CC1 returned ugtP null kill 12, BJeLR lethal -1, RN4220 kill -5.2, Bead autofluor 3096 and PrP UTR inh -16.
Screening CCCN(CC(=O)Nc1ccccc1C)C(=O)c1ccc(N2CCCCC2)c([N+](=O)[O-])c1 returned ugtP null kill 0, BJeLR lethal 3, RN4220 kill -1.7, Bead autofluor 4956, PrP UTR inh -20, Mtb hypoxia rep 8 and Mtb hypoxia rep growth -1.
Screening CC(C)CCn1c(N)c(S(=O)(=O)c2cccs2)c2nc3ccccc3nc21 returned ugtP null kill -26, BJeLR lethal -1, RN4220 kill -5.2, Bead autofluor 9997, PrP UTR inh 8, Mtb hypoxia rep -13 and Mtb hypoxia rep growth 4.
Screening S=C1NCN(Cc2cccnc2)CN1 returned ugtP null kill 3, BJeLR lethal 3, RN4220 kill 2.6, Bead autofluor 3668, Mtb hypoxia rep 20 and Mtb hypoxia rep growth 10.
`O=C(c1sc2ccccc2c1Cl)N1CCC2(CC1)OCCO2` gave ugtP null kill 11, BJeLR lethal 0, RN4220 kill 3.0, Bead autofluor 21877*, PrP UTR inh 9, Mtb hypoxia rep 9 and Mtb hypoxia rep growth 3.
`CCCCN(Cc1ccccc1)C(=O)c1cnc2n(c1=O)CCS2` gave ugtP null kill -3, BJeLR lethal -13, RN4220 kill -0.8, Bead autofluor 4196 and PrP UTR inh -22.
`CCOC(=O)CNC(=O)c1c2c(nc3ccccc13)CCCC2` gave ugtP null kill 8, BJeLR lethal 3, RN4220 kill -0.3, Bead autofluor 9189, PrP UTR inh -1, Mtb hypoxia rep 9 and Mtb hypoxia rep growth 2.
O=C(CCCC(=O)N1CCc2ccccc21)N1CCc2ccccc21 was read as ugtP null kill 0, RN4220 kill 3.7, Bead autofluor 4408, PrP UTR inh -23, Mtb hypoxia rep 11 and Mtb hypoxia rep growth 10.
`CCOC(=O)c1cc(-c2ccc(C)cc2)n(CCC(=O)N2CCN(c3ccccn3)CC2)c1C` gave ugtP null kill -11, BJeLR lethal -20, RN4220 kill 12, Bead autofluor 2210, PrP UTR inh -13, Mtb hypoxia rep 15 and Mtb hypoxia rep growth 7.
C#CCOCCOCCOCCNc1nc(N2CCN(C(=O)C(Cc3ccc(O)cc3)n3cc(C(N)C(C)CC)nn3)CC2)nc(N2CCN(C(=O)C(C(C)CC)n3cc(C(N)CC(C)C)nn3)CC2)n1 (stereo not given) was read as ugtP null kill -3, RN4220 kill 0.1, Mtb hypoxia rep 5 and Mtb hypoxia rep growth 20.
C=C(C)C(=O)OCC(O)COc1ccc(C(C)(C)c2ccc(OCC(O)COC(=O)C(=C)C)cc2)cc1 (stereo not given) was read as BJeLR lethal 2, Bead autofluor 6989 and PrP UTR inh -5.
Screening O=C(N/N=C/c1ccnc2ccccc12)c1ccccc1O returned BJeLR lethal -1, Bead autofluor 3756 and PrP UTR inh -18.
Screening Cc1ccc(C(=O)Nc2ccc(C(=O)O)cc2)cc1S(=O)(=O)NCc1ccccc1 returned ugtP null kill 4, BJeLR lethal -4, RN4220 kill 3.4, Bead autofluor 2483, PrP UTR inh -11, Mtb hypoxia rep -12 and Mtb hypoxia rep growth 7.
For COc1ccc(S(=O)(=O)NC(C)C(=O)Nc2cccc([N+](=O)[O-])c2)cc1 (stereo not given) the results were ugtP null kill 2, BJeLR lethal 7, RN4220 kill 2.2, Bead autofluor 2883, PrP UTR inh -12, Mtb hypoxia rep 8 and Mtb hypoxia rep growth 5.
COc1ccc(-c2nc(-c3ccccc3)[nH]c(=O)c2C#N)cc1 was read as ugtP null kill -2, BJeLR lethal -10, RN4220 kill 5.5, Bead autofluor 3228, PrP UTR inh 3, Mtb hypoxia rep 1 and Mtb hypoxia rep growth -5.
`COc1cc2c(cc1OC)C(c1cccs1)NCC2` (stereo not given) gave ugtP null kill -7, BJeLR lethal 1, RN4220 kill -0.7, Bead autofluor 2559 and PrP UTR inh -9.
`O=C(NNC(=O)c1ccccc1-n1cccc1)c1cccc(Cl)c1` gave ugtP null kill -5, BJeLR lethal -11, RN4220 kill 1.1, Bead autofluor 4302 and PrP UTR inh -1.
Screening Cc1cc(C)n(C(=O)c2ccc(S(=O)(=O)N3CCOCC3)cc2)n1 returned ugtP null kill -4, BJeLR lethal -12, RN4220 kill 0.6, Bead autofluor 9852, PrP UTR inh -31, Mtb hypoxia rep 5 and Mtb hypoxia rep growth 9.
For CCc1ccc(OCC(=O)N2CCN(c3ccccn3)CC2)c(Br)c1 the results were ugtP null kill -2, BJeLR lethal 3, RN4220 kill 1.1, Bead autofluor 6906, PrP UTR inh -4, Mtb hypoxia rep 1 and Mtb hypoxia rep growth 1.
Screening Cc1cc(C)nc(NS(=O)(=O)c2ccc(N3C(=O)C4C5C=CC(C5)C4C3=O)cc2)n1 (stereo not given) returned ugtP null kill 10, BJeLR lethal -3, RN4220 kill 2.0, Bead autofluor 2125, PrP UTR inh -12, Mtb hypoxia rep 5 and Mtb hypoxia rep growth 2.
COc1ccc(C(C)=NNC(=S)NCc2ccco2)cc1 was read as ugtP null kill -7, RN4220 kill 8.2, Mtb hypoxia rep 9 and Mtb hypoxia rep growth 2.
`Cc1onc(-c2ccccc2)c1C(=O)N/N=C/c1cc(Br)c(Br)o1` gave BJeLR lethal -5, Bead autofluor 2215 and PrP UTR inh -16.
Screening CC(C)COc1nc2ccccc2nc1C(C#N)C(=O)NC1CCCCC1 (stereo not given) returned ugtP null kill -6, BJeLR lethal 3, RN4220 kill 3.8, Bead autofluor 2658 and PrP UTR inh -9.
`CC(C)(C)c1csc(NNC(=O)c2ccc(Br)cc2)n1` gave ugtP null kill 3, BJeLR lethal 2, RN4220 kill 0.1, Bead autofluor 4340, PrP UTR inh -42, Mtb hypoxia rep 2 and Mtb hypoxia rep growth -1.
For COc1ccc(Cl)cc1NC(=O)C/C(C)=N/NC(=O)Cc1ccccc1 the results were BJeLR lethal -7, Bead autofluor 4154 and PrP UTR inh -12.
C=CCn1c(SCCOc2ccc(OC)cc2)nnc1C(NC(=O)c1ccc(OC)cc1)C(C)C (stereo not given) was read as ugtP null kill 1, BJeLR lethal -6, RN4220 kill 5.9, Bead autofluor 24446*, PrP UTR inh -23, Mtb hypoxia rep 10 and Mtb hypoxia rep growth 3.
Screening COc1ccccc1CC(=O)NN1C(=O)c2ccccc2C1=O returned ugtP null kill 0, BJeLR lethal 4, RN4220 kill 2.1, Bead autofluor 2043, PrP UTR inh -22, Mtb hypoxia rep 3 and Mtb hypoxia rep growth -3.
Cc1ccccc1NCC(=O)NN=C/C(Br)=C/c1ccccc1 was read as ugtP null kill -20, RN4220 kill -5.3, Mtb hypoxia rep -4 and Mtb hypoxia rep growth -9.
For CCCCC(=O)Nc1cccc(-c2nn3c(C)nnc3s2)c1 the results were ugtP null kill -5, BJeLR lethal 4, RN4220 kill 7.5, Bead autofluor 9731, PrP UTR inh -22, Mtb hypoxia rep 12 and Mtb hypoxia rep growth -2.
Screening CCN(Cc1ccccc1)C(=O)COC(=O)CNS(=O)(=O)c1ccc(C)cc1 returned ugtP null kill -4, BJeLR lethal -2, RN4220 kill 2.0, Bead autofluor 2355, PrP UTR inh -18, Mtb hypoxia rep -1 and Mtb hypoxia rep growth 7.
Cc1cccc(OCCSc2nc3ccccc3n2CCC(=O)O)c1 was read as ugtP null kill 11, BJeLR lethal 2, RN4220 kill 5.5, Bead autofluor 3935, PrP UTR inh -22, Mtb hypoxia rep 2 and Mtb hypoxia rep growth 5.
Screening CC1CCCCC1NC(=O)CCS(=O)(=O)c1ccc2c(c1)NC(=O)CO2 (stereo not given) returned ugtP null kill 1, BJeLR lethal -6, RN4220 kill 4.2, Bead autofluor 5877, PrP UTR inh -7, Mtb hypoxia rep -3 and Mtb hypoxia rep growth 6.
Screening O=C(CN(C(=O)c1ccc(Cl)cc1)C1CCCCC1)Nc1ccc(Cl)c([N+](=O)[O-])c1 returned ugtP null kill -55, BJeLR lethal -4, RN4220 kill -13, Bead autofluor 2459, PrP UTR inh -12, Mtb hypoxia rep -2 and Mtb hypoxia rep growth -10.

An excerpt from above in order of SMILES length, smallest number first.
COc1ccc(C(C)=NNC(=S)NCc2ccco2)cc1 was read as ugtP null kill -7, RN4220 kill 8.2, Mtb hypoxia rep 9 and Mtb hypoxia rep growth 2.
Cc1ccccc1NCC(=O)NN=C/C(Br)=C/c1ccccc1 was read as ugtP null kill -20, RN4220 kill -5.3, Mtb hypoxia rep -4 and Mtb hypoxia rep growth -9.
For CCc1ccc(OCC(=O)N2CCN(c3ccccn3)CC2)c(Br)c1 the results were ugtP null kill -2, BJeLR lethal 3, RN4220 kill 1.1, Bead autofluor 6906, PrP UTR inh -4, Mtb hypoxia rep 1 and Mtb hypoxia rep growth 1.
Screening CC1CCCCC1NC(=O)CCS(=O)(=O)c1ccc2c(c1)NC(=O)CO2 (stereo not given) returned ugtP null kill 1, BJeLR lethal -6, RN4220 kill 4.2, Bead autofluor 5877, PrP UTR inh -7, Mtb hypoxia rep -3 and Mtb hypoxia rep growth 6.
For COc1ccc(S(=O)(=O)NC(C)C(=O)Nc2cccc([N+](=O)[O-])c2)cc1 (stereo not given) the results were ugtP null kill 2, BJeLR lethal 7, RN4220 kill 2.2, Bead autofluor 2883, PrP UTR inh -12, Mtb hypoxia rep 8 and Mtb hypoxia rep growth 5.
Screening O=C(CN(C(=O)c1ccc(Cl)cc1)C1CCCCC1)Nc1ccc(Cl)c([N+](=O)[O-])c1 returned ugtP null kill -55, BJeLR lethal -4, RN4220 kill -13, Bead autofluor 2459, PrP UTR inh -12, Mtb hypoxia rep -2 and Mtb hypoxia rep growth -10.

Screens deposited in PubChem by several laboratories.
